hNpr1 antagonist: human Npr1 receptor antagonism; P16066; HEK293 hNpr1 GloSensor cGMP, ANP-stimulated luminescence; Potency, µM (series often up to 46.3 µM), for the others: top-dose activity change, negative = inhibition, most hits filed as inhibitors; 1.6% of 76,000 active; active = well fitted inhibition curve with a large enough effect; inconclusive = small, poorly fitted or top-dose-only effect; inactive = no such curve, though single readings can be large or run the other way;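 further: nearly all actives have a fitted effect of over 60% in size; nearly all hits also lower the signal before the agonist is added; a reference antagonist and vehicle were the controls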
Target sequence (P16066 whole entry, looked up): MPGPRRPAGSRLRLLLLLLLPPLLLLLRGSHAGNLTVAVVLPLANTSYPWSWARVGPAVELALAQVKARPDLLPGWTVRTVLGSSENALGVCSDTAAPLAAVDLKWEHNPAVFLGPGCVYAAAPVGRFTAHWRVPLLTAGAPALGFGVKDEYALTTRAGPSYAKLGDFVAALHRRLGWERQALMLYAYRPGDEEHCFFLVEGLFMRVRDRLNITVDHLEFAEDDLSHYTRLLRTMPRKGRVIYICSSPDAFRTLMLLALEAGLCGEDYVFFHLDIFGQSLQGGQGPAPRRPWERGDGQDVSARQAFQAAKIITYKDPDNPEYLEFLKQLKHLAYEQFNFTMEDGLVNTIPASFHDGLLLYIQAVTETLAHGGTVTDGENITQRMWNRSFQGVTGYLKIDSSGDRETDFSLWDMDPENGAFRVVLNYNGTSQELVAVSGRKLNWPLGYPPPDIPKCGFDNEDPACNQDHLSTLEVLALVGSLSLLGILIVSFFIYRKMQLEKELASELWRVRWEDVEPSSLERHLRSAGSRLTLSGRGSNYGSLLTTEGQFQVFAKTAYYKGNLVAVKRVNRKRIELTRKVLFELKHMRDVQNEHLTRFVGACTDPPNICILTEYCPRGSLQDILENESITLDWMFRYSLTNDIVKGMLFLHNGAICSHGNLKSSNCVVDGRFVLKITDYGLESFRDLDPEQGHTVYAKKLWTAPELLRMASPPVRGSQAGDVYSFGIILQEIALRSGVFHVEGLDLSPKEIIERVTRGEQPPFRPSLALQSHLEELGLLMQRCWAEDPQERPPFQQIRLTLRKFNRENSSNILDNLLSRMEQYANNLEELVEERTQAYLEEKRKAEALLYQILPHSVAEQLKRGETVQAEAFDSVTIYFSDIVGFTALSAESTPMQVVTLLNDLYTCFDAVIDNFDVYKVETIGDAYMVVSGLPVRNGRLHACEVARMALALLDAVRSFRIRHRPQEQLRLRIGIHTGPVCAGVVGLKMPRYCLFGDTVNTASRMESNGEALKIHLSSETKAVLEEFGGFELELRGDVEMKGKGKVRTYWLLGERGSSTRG
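HEK293 cells stably expressing human Npr1 and cGMP GloSensor pGS-40F, loaded 2 h with 2% GloSensor reagent, given compound 30 min at room temperature. Luminescence read before and 20 min after 0.1 nM hNppA.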
Numbers without * were called inactive; ? = inconclusive; [ ] = dose if it differs, or a comment. On the % scale 0 is the no-effect control and ±100 the full control effect; potency means the concentration at half of the fitted maximal effect. The list is partial; the hit share may differ from the screen's.

A first look (2 entries):
| hNpr1 antagonist | mol |
| --- | --- |
| 0% | CC(C)c1noc(-c2cn(C3CCN(C(=O)COc4ccccc4)C3)nn2)n1 (stereo unspecified) |
| -1%[70.6 µM] | O=C1CN(C(=O)c2ccnc(-c3nnc4ccc(Nc5ccccc5)nn34)c2)CCN1 |

The listing, from the first entry:
| hNpr1 antagonist | mol |
| --- | --- |
| 0% | CC(C)c1noc(-c2cn(C3CCN(C(=O)COc4ccccc4)C3)nn2)n1 (stereo unspecified) |
| -1%[70.6 µM] | O=C1CN(C(=O)c2ccnc(-c3nnc4ccc(Nc5ccccc5)nn34)c2)CCN1 |
| -1%[70.6 µM] | Cc1ccc(OC(=O)N2CCC(COc3ccc4c(cnn4CCC(=O)O)c3)CC2)cc1 |
| -16%[70.6 µM] | CC1(c2ccccc2)N(Cc2ccccc2F)C(=O)OC12CCN(c1cccnc1)CC2 (stereo unspecified) |
| 16µM* | COc1ccc(-c2noc(CC3CCN(C(=O)Cc4ccc(C)cc4)CC3)n2)cc1 |
| -1% | CCN(CC)Cc1cc(C(=O)N2Cc3[nH]cnc3CC2C(=O)O)c(C)o1 (stereo unspecified) |
| -2% | COCc1nc(C2CCN(C(C)=O)C2)no1 (stereo unspecified) |
| -29% | COc1ccc(-c2cc(N3CCC(NC(=O)c4ccc5cc[nH]c5c4)CC3)n[nH]2)cc1 |
| ? | COc1ccc(CN2C(=O)[C@@H]3C[C@@H](CN3C3CCCC3)Oc3ccccc32)cc1 |
| 4%[70.6 µM] | CC(C)CCO[C@H]1COCCN(Cc2ccccn2)C1 |
| 7% | Cc1ccccc1C(=O)N1CCC2(CC1)OCC(C(=O)N1CCCC1)N2C(=O)c1ccc(F)cc1 (stereo unspecified) |
| -12% | CCNC(=O)[C@@H]1C[C@@H](O)CN1C1CCN(C(=O)c2cccc(OC)c2)CC1 |
| -9% | COc1ccc(Cc2noc(-c3ccc(N(C)Cc4nonc4C)nc3)n2)cc1 |
| 5%[70.6 µM] | O=C(O)CCC(=O)N1Cc2[nH]cnc2C[C@H]1c1nc(-c2ccc(Cl)cc2)no1 |
| 4%[70.6 µM] | COc1ccc(CN(C)Cc2ccc(-c3ccccc3)cc2)cc1 |
| 7.1µM* | O=C(c1ccccc1)N1CCc2sc(C(=O)N3CCN(c4ccc(F)cc4)CC3)cc2C1 |
| ? | O=C1OC2(CN1CCOc1ccccc1)CN(C(=O)c1ccc(Oc3ccccc3)cc1)C2 |
| 0%[70.6 µM] | CC(=O)N1CCN(C(=O)c2c[nH]c3ncccc23)CC1 |
| -2%[70.6 µM] | CC(=O)N1CCN([C@H]2[C@@H]3OC[C@@H](O3)[C@@H](NC(=O)NC3CCCCC3)[C@@H]2O)CC1 |
| ? | CC(C)c1nc(-c2ccc(OC3CCN(S(=O)(=O)Cc4ccccc4)C3)cc2)no1 (stereo unspecified) |
| 3% | COc1cccc(-c2cc(CC3(O)CCN(c4nnc(C)o4)CC3)on2)c1 |
| 0% | O=C(c1ccccc1OCC1CCCN(C2CCSCC2)C1)N1CCCCC1 (stereo unspecified) |
| 0% | Cc1cc(C(=O)N2C[C@@H](F)C[C@H]2C(=O)N2CCc3ccccc3C2)n(C)n1 |
| -5%[70.6 µM] | Cc1noc(C)c1-c1cc2cc(CO)oc2c(NCc2ccc3c(c2)OCO3)n1 |
| -15% | O=C(NC1CC1)c1ccccc1OC1CN(Cc2ccc(F)cc2)C1 |
| 2% | COCCO[C@H]1C(=O)N(C2CCN(C(=O)c3ccnn3C)CC2)[C@H]1c1ccncc1 |
| 0%[70.6 µM] | Cc1ccc([C@H]2C[C@@H](O)[C@@H](O)[C@@H]2NC2CCOCC2)cc1 |
| 0% | COc1ccc(C(=O)NCCc2ncc(C)n2Cc2ccc(F)cc2)cn1 |
| 6% | CCn1c(CO)nnc1C1CC(NC(=O)c2oc3cc(OC)ccc3c2C)C1 (stereo unspecified) |
| -17%[70.6 µM] | COc1ccc(Nc2cc(-c3ccccc3OC)nc3c(C)noc23)cc1OC |
| 0% | O=C1CCCN1CCCN1C(=O)[C@@H]2C[C@@H](O)CN2C2(CN(Cc3ccc(Cl)cc3)C2)C1=O |
| -2%[70.6 µM] | COCCN1C(=O)[C@@H]2C[C@@H](CN2Cc2cnc3ccccc3c2)Oc2ccccc21 |
| 2% | Cc1nc2cccnc2n1CC1CCCN(C(=O)Nc2ccccc2Cl)C1 (stereo unspecified) |
| -16% | Cc1ccccc1Cn1cc(-c2ccncc2)cc1C(=O)Nc1ccc2c(c1)OCO2 |
| 1% | COCCN1CC(CO)C2(CCN(Cc3cccc(Cl)c3)CC2)C1 (stereo unspecified) |
| -23% | CCCNc1cc(N2CCC(CCC(=O)Nc3cccc(C)c3)CC2)ncn1 |
| -2% | CC(C)c1nncn1C1CCN(S(=O)(=O)c2ccc(C(F)(F)F)cc2)CC1 |
| -8% | CCc1[nH]c2c(CNC(=O)CC3NC(=O)c4ccccc43)cc(C)cc2c1C (stereo unspecified) |
| -9%[70.6 µM] | CN(C)c1ncc2c(n1)C(C)(C(=O)NCC1CC1)CCC2 (stereo unspecified) |
| 0% | Cc1cccc(C(=O)N2CCC(c3n[nH]c(=O)n3-c3ccccc3)CC2)c1 |

4 entries from above, reformatted:
compound	hNpr1 antagonist
COCCN1C(=O)[C@@H]2C[C@@H](CN2Cc2cnc3ccccc3c2)Oc2ccccc21	-2%[70.6 µM]
Cc1nc2cccnc2n1CC1CCCN(C(=O)Nc2ccccc2Cl)C1 (stereo unspecified)	2%
Cc1ccccc1Cn1cc(-c2ccncc2)cc1C(=O)Nc1ccc2c(c1)OCO2	-16%
COCCN1CC(CO)C2(CCN(Cc3cccc(Cl)c3)CC2)C1 (stereo unspecified)	1%

Next section.
| hNpr1 antagonist | mol |
| --- | --- |
| 4% | COc1cccc(CCC(=O)N2Cc3ccccc3OC3(CCN(C)CC3)C2)c1 |
| 1% | COCc1nc(C2CC(NC(=O)CCc3c[nH]c4ccccc34)C2)cc(=O)[nH]1 (stereo unspecified) |
| -6%[70.6 µM] | O[C@@H]1C[C@@H](c2nc(-c3ccccc3)no2)N(Cc2ccccc2)C1 |
| -1% | CC(=O)N1CCC(C2CCN(Cc3cccc(F)c3F)C2)CC1 (stereo unspecified) |
| -6%[70.6 µM] | COc1cc(-c2cc3c(nc2-c2ccccc2)nc(C(=O)NCCN(C)C)n3C)ccn1 |
| 1% | CCCN1C(=O)CCc2cc(NC(=O)c3ccn(CC)n3)ccc21 |
| 13µM* | O=C(CCC1CCN(C(=O)c2cc(C3CC3)[nH]n2)CC1)N1CCC(Cc2ccccc2)CC1 |
| -13% | CCN1CCN(c2ccc(-c3nc(CCCc4ccccc4)no3)cn2)CC1 |
| -9% | CNc1cc(C2CC(Nc3nc(N)nc(C)c3Cl)C2)nc(COC)n1 (stereo unspecified) |
| -4% | COCC(=O)N1CCC(Oc2nccnc2N(C)C)C1 (stereo unspecified) |
| 0% | CN(C)c1ncnc2sc3c(c12)CCN(S(=O)(=O)c1ccccc1)C3 |
| -18% | C[C@]1(CO)[C@H]2Cc3sc(NC(=O)c4cccc(F)c4)nc3[C@@H](CC(=O)N3CCCCC3)[C@]2(C)CC[C@H]1O |
| 1%[70.6 µM] | COCCn1c(=O)c2c(n1Cc1ccccc1)CN(C(=O)CCc1ccccn1)CC2 |
| 0%[70.6 µM] | COc1cccc(-c2cccc(CN3CCCC(C)(NC(C)=O)C3)c2)c1 (stereo unspecified) |
| -24% | CC1=C[C@@H](CNC(=O)COc2ccccc2)[C@H](C(C)C)C[C@H]1Cc1nnc(-c2cncn2C)o1 |
| 4% | CCCc1cc(N2CCC(N[C@@H]3CCNC3)CC2)nc(C)n1 |
| 3%[70.6 µM] | Cc1cc(-c2cc3c(cn2)CN(Cc2ccc(F)c(F)c2)CCN3)ccn1 |
| 0% | COc1cccc(CCC2CCCN(C3CCN(Cc4cccnc4)CC3)C2)c1 (stereo unspecified) |
| -16% | O=C(NC1CCN(c2cc(-c3ccccc3)[nH]n2)CC1)c1cccs1 |
| -3% | O=C(c1cn[nH]c1-n1cnnn1)N1C[C@H](CO)C[C@H](CN2CCCC2)C1 |
| ? | O=C(OCc1ccccc1)N1CCOCC12CCN(Cc1nccs1)CC2 |
| 3% | CCOc1ccc(NC(=O)c2cc(-c3ccc[nH]3)n[nH]2)cc1 |
| -9% | COc1ccc(OC)c(S(=O)(=O)N2C[C@@H](F)C[C@H]2C(=O)N2CCc3ccccc3C2)c1 |
| 0% | CCn1c(C)ccc(C(=O)N2CCc3[nH]nc(-c4ccccc4F)c3C2)c1=O |
| 2% | Cn1nc(C(=O)N2CCN(C(=O)N3CC4CC(C3)[C@H]3CCCC(=O)N3C4)CC2)c2ccccc21 (stereo partly specified) |
| 31%[activator][70.6 µM] | CC(C)(C)C(=O)N1CCC2(CC1)Cc1ccccc1NC2=O |
| -2%[70.6 µM] | CNC(=O)[C@@H](CC(C)C)N1CCC[C@H]1C(=O)N1CCCC1 |
| -7% | Cc1cccc(NC(=O)N2CCCC(Cn3cnc4cccnc43)C2)c1C (stereo unspecified) |
| 0% | Cc1c(Cl)cccc1NC(=O)Cn1cccc1-c1nc(-c2ccc(F)cc2)no1 |
| -13% | CN1C(=O)c2cccn2CC1CNC(=O)c1[nH]nc2c1COc1ccccc1-2 (stereo unspecified) |
| -1%[70.6 µM] | NC(=O)CO[C@@H]1CO[C@H]2[C@@H]1OC[C@@H]2NS(=O)(=O)c1ccc(Cl)cc1 |
| 3% | CCN(CC1CCCO1)C(=O)c1ccccc1OC1CCN(C(=O)c2cccnc2)CC1 (stereo unspecified) |
| -3%[70.6 µM] | COc1ccccc1CC(=O)N1CCCc2ncc(C(=O)Nc3ccccn3)cc21 |
| -10% | COc1ccccc1N1CCC(N[C@H](c2cccs2)C2CC(O)C2)CC1 (stereo partly specified) |
| -3% | CCN1CCN(CCCNC(=O)CN2CC3CC(C2)[C@H]2CCCC(=O)N2C3)CC1 (stereo partly specified) |
| 4% | N#Cc1ccccc1CN1CCC(Cc2nncn2-c2ccccc2)CC1 |
| -1% | CN(C)C(=O)c1ccc(N2CCC(NCCC3=CC[C@H]4C[C@@H]3C4(C)C)CC2)cc1 |
| 4% | CN1C(=O)CC[C@]2(C(=O)NCc3cccc(F)c3)CCCC[C@@H]12 |
| 1%[70.6 µM] | O=C(N[C@@H](Cn1cc(Cl)c(=O)[nH]c1=O)C(=O)O)c1cccc(F)c1 |
| 0% | COc1ccc(OCc2cc(C(=O)N(C)CCCO)n[nH]2)c(Cl)c1 |
| -2% | NC(=O)[C@@H](Cc1ccccc1)NC(=O)C1=C[C@@H](NS(=O)(=O)c2cccc(C(F)(F)F)c2)[C@@H](O)[C@H](O)C1 |
| 16µM* | CCOc1ccc(CC(=O)N2CCC(Cc3nc(-c4ccc(OC)cc4)no3)CC2)cc1OCC |
| -1% | Cc1cnc(CC2CCCN(C(=O)COc3ccccc3)C2)n1Cc1ccc(F)cc1 (stereo unspecified) |
| -30% | CC1=C(C(=O)OC(C)C)C(c2ccc([N+](=O)[O-])cc2)N2C(CC(=O)N3CCOCC3)=CSC2=N1 (stereo unspecified) |
| 0% | COc1ccc(NC(=O)CN2C(=O)NC(c3ccccc3Cl)C3=C2COC3=O)c(OC)c1 (stereo unspecified) |
| 2% | O=C1O[C@@H]2CN(Cc3cnc[nH]3)C[C@@H]2N1CCc1ccc(F)cc1 |
| 6.3µM* | CCOc1ccc(C(=O)N2CCC(Cc3nc(-c4ccc(OC)cc4)no3)CC2)cc1OCC |
| -1% | CCNC(=O)N1CC2CC(C1)[C@H]1CCCC(=O)N1C2 (stereo partly specified) |
| -8% | CC(C)Oc1cccc2c1c(NC(=O)c1cc(F)cc(C#N)c1)nn2C |
| 4% | Cc1cccc(Nc2nc(N)nc(CN3CCC4(CC3)OCCCC4O)n2)c1 (stereo unspecified) |
| 0% | O=C(Cn1nc2c(cc1=O)CCCC2)NCc1cccc(F)c1 |
| -2% | CN(Cc1ccccc1)c1cnn(Cc2noc(C3CC3)n2)c(=O)c1 |
| 4% | NC(=O)[C@@H]1CN(Cc2ccccn2)C[C@H]1COc1ccccc1 |
| 1% | CCOC(=O)C1(Cc2ccccc2F)CCCN(C(=O)c2ccc(-n3ccnc3)cc2)C1 (stereo unspecified) |
| -20% | O=C(c1ccccc1F)N1CCC(c2nc(C3CCOCC3)no2)C1 (stereo unspecified) |
| 2% | COc1ccc(C(=O)N2CCN(C(=O)N3CC4CC(C3)[C@H]3CCCC(=O)N3C4)CC2)cn1 (stereo partly specified) |
| -3% | Cc1ccc(OCc2nc(C3CCCCN3C(=O)c3ccncc3)no2)cc1 (stereo unspecified) |
| 2% | Cc1cnccc1NCCn1ccnc1-c1cc2n(n1)CCCNC2 |
| 1% | Cc1noc([C@@H]2CN(Cc3ccc4c(c3)CCO4)C[C@H]2CO)n1 |
| 2% | O=C(O)[C@H]1C[C@@H](C(=O)NCc2ccccn2)CN(CC2CC2)C1 |

2 entries picked at random from those above, as already listed:
| hNpr1 antagonist | mol |
| --- | --- |
| -20% | O=C(c1ccccc1F)N1CCC(c2nc(C3CCOCC3)no2)C1 (stereo unspecified) |
| 0% | O=C(Cn1nc2c(cc1=O)CCCC2)NCc1cccc(F)c1 |

Later entries:
| hNpr1 antagonist | mol |
| --- | --- |
| -4%[70.6 µM] | c1ccc(CCN2CCNc3cc(N4CCN(c5ccccn5)CC4)ncc3C2)cc1 |
| -2% | COc1ccccc1OC1(C(=O)O)CCN(c2cc(C)nc(C)c2)CC1 |
| ? | CC1=NS(=O)(=O)N(Cc2ccccc2)C=C1C(=O)OCc1noc(C2CCCCC2)n1 |
| 0% | COc1ccc(C(=O)N2CCC(c3n[nH]c(=O)n3Cc3ccc(F)cc3)CC2)cn1 |

In the list so far, 3 contain a furan ring, fused or not.
| hNpr1 antagonist | mol |
| --- | --- |
| -1% | CCN(CC)Cc1cc(C(=O)N2Cc3[nH]cnc3CC2C(=O)O)c(C)o1 (stereo unspecified) |
| -5%[70.6 µM] | Cc1noc(C)c1-c1cc2cc(CO)oc2c(NCc2ccc3c(c2)OCO3)n1 |
| 6% | CCn1c(CO)nnc1C1CC(NC(=O)c2oc3cc(OC)ccc3c2C)C1 (stereo unspecified) |

Screening results as filed in PubChem BioAssay.
